Assay outcomes as filed in PubChem.
HNF4A DNA FP: change in binding of human HNF4 alpha to DNA. activity change, % at 10 µM. P41235. 360,000 tested, 0.3% active. HNF4a-FITC DNA binding, fluorescence polarization, 1 h; in the data active = activity change above about 30%, passing the limit was not always enough;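 also: controls were the assay level and a saturating level of protein; the project sought stronger binding though the title names inhibitors; some compounds called inactive have numbers as strong as hits; positive values seem to mean higher polarization but the record does not say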
Vif A3G: inhibitors of Vif binding to APOBEC3G peptide, primary screen, biochemical, TR-FRET, GST-Vif 1-94, biotin-A3G peptide, dose response retest (AID 1117319); TR-FRET GST-Vif / biotin-A3G peptide binding; higher % means a stronger effect; test concentration not given here; strong numbers were not always called active; inhibition, %; hits with a dose series show IC50 in µM; 260,000 tested, 0.57% active;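 active = above the screen mean plus three standard deviations and confirmed in dose response; inconclusive = results disagree or hit not tested in dose response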;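 also: Vif residues 1-94 fused to GST binding biotinylated APOBEC3G peptide 110-148; 0% = full assay without inhibitor and 100% = GST in place of GST-Vif; retest series ran down from 100 µM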
LANA-H2B inh: blocks KSHV LANA binding to histone H2A/H2B. Q9QR71. cell-free LANA-H2A/H2B peptide, fluorescence polarization. inhibition, % (no concentration beside the values). 320,000 tested, 0.6% active. AID 2629; in the data active = inhibition mostly above about 10%, no sharp cut-off; inactive = mostly below about 6.7%;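 also: stock transfer was 7.5 nL into about 10 µL; 0% = median of vehicle wells and 100% = median of positive control wells; one replicate is shown; the record names a cut of 25% in any replicate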
RanGTP-Impb inh: disruptors of Ran-importin-beta complex formation – biochemical, FRET, CFP-Ran, YFP-importin-beta, homogeneous, primary screen | cell-free CFP-Ran/YFP-importin-beta FRET ratio | inhibition, % (no concentration beside the values) | 300,000 tested, 1.1% active | AID 2216;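 active = most replicates above 15%; inconclusive = exactly half above 15%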;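 also: 0% = DMSO wells and 100% = Ran loaded with GDP instead of GTP; wells of about 40 µL received 100 nL stock; the first replicate is given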
ALR inh: blocks human ALR sulfhydryl oxidase activity; 290,000 tested, 3.8% active; AID 485317; inhibition, % (no concentration beside the values); P55789; purified ALR, DTT oxidation, H2O2 HRP-luminol luminescence;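 active = mean and each replicate at 75% or more; inconclusive = only one of the two met; inactive = neither met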;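 also: stock transfer was 7.5 nL into about 7.5 µL; 0% = neutral wells and 100% = wells with inactivated enzyme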
Target sequence (P55789 whole entry, looked up): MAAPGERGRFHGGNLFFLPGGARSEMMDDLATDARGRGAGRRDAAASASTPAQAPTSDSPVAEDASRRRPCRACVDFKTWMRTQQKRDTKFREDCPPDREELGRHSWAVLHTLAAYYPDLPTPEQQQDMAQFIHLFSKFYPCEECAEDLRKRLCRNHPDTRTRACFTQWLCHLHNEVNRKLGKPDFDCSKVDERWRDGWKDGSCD
B2AR ag: human beta-2 adrenergic receptor agonism by FAP; P07550; Am2.2-beta2AR cells, FAP receptor internalization, flow cytometry; reference of the scale not given here; response, % (no concentration beside the values); 340,000 tested, 0.43% active;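 active = response above a set limit, near 3 SD of response in nonfluorescent compounds, cut at about 42% in these data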;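 also: stock transfer was 100 nL into about 11 µL; a reference agonist was the positive control; negative values mostly stem from fluorescent compounds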
Target sequence (P07550 whole entry, looked up): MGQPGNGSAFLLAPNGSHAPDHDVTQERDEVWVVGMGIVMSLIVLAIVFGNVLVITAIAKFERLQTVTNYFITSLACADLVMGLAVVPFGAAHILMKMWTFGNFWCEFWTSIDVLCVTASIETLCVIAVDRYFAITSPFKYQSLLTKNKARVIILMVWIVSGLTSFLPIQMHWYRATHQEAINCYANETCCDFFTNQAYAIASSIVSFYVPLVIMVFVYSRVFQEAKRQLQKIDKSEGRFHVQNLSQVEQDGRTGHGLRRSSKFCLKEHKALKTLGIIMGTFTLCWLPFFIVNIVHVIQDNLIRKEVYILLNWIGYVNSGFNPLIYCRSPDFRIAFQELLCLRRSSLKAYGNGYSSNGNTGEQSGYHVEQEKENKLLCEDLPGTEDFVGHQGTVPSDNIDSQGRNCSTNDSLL
Calb FLC: C. albicans growth modulation with fluconazole; C. albicans CaCi-2 (fluconazole-resistant clinical isolate) + fluconazole, Alamar Blue growth, 48 h; growth inhibition, % (concentration not given with the values); 300,000 tested, 0.57% active; AID 1979;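 active = most replicates above 75%; inconclusive = exactly half above 75%; inactive = most below 75%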;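 also: all wells also contain fluconazole at 8 µg/ml as a sub-toxic cotreatment; 0% = median of DMSO wells and 100% = median of geldanamycin control wells; wells of about 8 µL received 7.5 nL stock; the first replicate is given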
The depositor's hits bear a star; ? = inconclusive; · = no result given; & = joins results of further samples.

smiles,HNF4A DNA FP,Calb FLC,Vif A3G,RanGTP-Impb inh,LANA-H2B inh,ALR inh,B2AR ag
CCOC12CC(C)(C)CC(C)(CC3=C1C(=O)CC(C)(C)C3)C2 (stereo not given),-2.0,-1,3%,5.4,0.3,-4,3
Cc1ccc(-c2c(C(=O)O)c3ccccc3[nH]c2=O)cc1,1.6,1,-2%,2.9,2.7,-7,-2
Cc1nn(-c2ccccc2)c(C)c1NC(=O)COC(=O)c1ccccc1OC(F)F,2.3,-3,·,-1.6,4.9,0,-2
Cc1oc2ccccc2c1-c1cn2c(n1)SCC2,5.2,19,-2%,10,-3.9,33,-3
COc1cc(C(=O)NNC(=O)c2ccc3c(c2)OCCO3)cc(OC)c1OC,0.3,·,-8%,·,2.9,-8,0
Cc1ccccc1NC(=O)CSc1[nH]c(=O)cc(C)c1C#N,-11,20,-2%,8.0,3.3,71,0
Cc1ccc(N(C(=O)Nc2ccccc2)C2=NCC(C)S2)cc1 (stereo not given),33*,?,2%&-2%,6.3,2.9,0,-1
Cc1cc(=O)[nH]c(SCC(=O)NCC2CCCCC2)c1C#N,1.3,30,·,·,0.0,-1,-4
O=S1(=O)CCOC[C@H](Cc2ccccc2)N1Cc1cccc(Cl)c1,-0.5,-1,·,0.3,4.0,-4,-5
Cc1cc(C)cc(C(=O)NCC(=O)OCC(=O)NCc2ccco2)c1,-2.6,-6,·,4.4,2.6,0,17
Cc1cc(NC(=O)c2ccc3c(c2)C(=O)N(c2cccc(C)c2C)C3=O)no1,-1.4,-1,·,-0.6,2.3,2,-16
CCOc1cc(/C=N/n2cnnc2)cc(Br)c1O,-0.6,-1,?,2.0,-1.5,75,-1
CC(=O)N/C(=N/c1nc(C)cc(C)n1)Nc1ccc(F)cc1F,2.9,1,-3%,-1.4,-0.7,-4,-6
Cc1ccc(NC(=O)CSCc2cc(=O)n3cc(C)sc3n2)c(C)c1,-0.8,4,·,3.1,-2.9,-3,-7
Cc1cc(C(=O)COC(=O)CNC(=O)c2ccccc2)c(C)n1CC1CCCO1 (stereo not given),1.2,10,?,-2.4,-2.5,·,-1
CCC(=O)Nc1nn(C)c2nc3c(C)cccc3cc12,0.7,0,5%,22*,1.9,-28,-12
COc1ccc2nc(-n3c(C)ccc3C)sc2c1,4.3,2,26%,3.5,-5.1,-4,18
C#CCOc1ccc(/C=C2\SC(=S)N(Cc3cccnc3)C2=O)cc1,0.3,-31,·,-1.1,-3.5,1,10
Cc1ccccc1NC(=O)CC1C(=O)Nc2ccccc2N1CC(=O)N(C)C1CCS(=O)(=O)C1 (stereo not given),2.5,·,-13%,·,·,·,9
CCOC(=O)CSc1ncc(OC)c(=O)[nH]1,0.9,-3,-2%,-2.0,-0.1,2,-3
C#CCOc1ccc(C2C3=C(COC3=O)Nc3cc4c(cc32)OCO4)cc1OC (stereo not given),-0.5,-19,3%,3.3,·,·,19
CCN(CC)CCn1c(=S)[nH]c2cc3c(cc2c1=O)OCO3,2.0,6,2%,9.5,2.0,69,5
Cc1sc2ncnc(SCc3ccc(C(=O)O)cc3)c2c1C,0.6,-4,3%,3.3,-2.1,-2,9
CCOc1ccc(NC(=S)NC(=O)/C=C/c2ccc(OC)cc2)c([N+](=O)[O-])c1,4.1,26,·,5.1,3.5,-1,10
CCS(=O)(=O)c1nc(S(=O)(=O)c2ccc(Cl)cc2)c(N2CCN(C)CC2)s1,3.6,1,·,7.4,6.5,2,-6
CC1(C)Cc2c(c(N3CCOCC3)nc3snc(N)c23)CO1,2.4,-44,-2%,1.1,-0.6,·,7
CCOC(=O)CCn1cc(F)c(=O)[nH]c1=O,1.3,2,-3%,-0.9,-1.2,·,0
O=C(C1=C[C@@H](c2csc3ccccc23)C[C@@H](OCc2ccc(CO)cc2)O1)N1CCN(Cc2ccccc2)CC1,0.7,10,3%,6.8,1.1,5,-4
CC1=NN(C(=O)c2ccco2)C(O)(c2ccccc2)C1 (stereo not given),-0.9,6,11%,-3.3,-4.6,56,1
COc1ccc(N=C2SC(C(=O)N3CCN(c4ccc([N+](=O)[O-])cc4)CC3)CC(=O)N2C)cc1 (stereo not given),-2.1,5,8%,?,-6.5,2,10
CCOc1ccc(S(=O)(=O)Nc2cccc(C(=O)N3CCN(C(C)=O)CC3)c2)cc1,-0.9,7,6%,1.5,5.4,-4,4
O=C(CSc1nnc(C2CCCCC2)o1)N1CCCCC1,5.3,11,-3%,2.7,-4.8,-3,-1
CCN(Cc1ccccc1)C(=O)COC(=O)c1cc(S(=O)(=O)Nc2ccccc2OC)ccc1O,-1.1,·,·,·,0.7,-1,8
O=C(NC1CCCCCCC1)C1c2ccccc2C(=O)N1Cc1ccco1 (stereo not given),-1.6,-3,1%,4.7,-1.4,38,-10
O=S(=O)(c1cccs1)N1CCN(CCOc2ccccc2)CC1,0.4,·,-6%,·,·,·,5
CCc1cccc(CC)c1NC(=O)c1ccccc1,2.1,-6,1%,2.4,-6.5,-7,-3
Cc1cc2oc(=O)cc(-c3ccccc3)c2c(C)c1-c1ccc(OC(F)(F)F)cc1,-2.1,·,1%,·,·,·,11
COc1cc(C(=O)N[C@H](C(=O)Nc2nnc(C3CC3)s2)C(C)C)cc(OC)c1OC,0.4,-5,?,4.6,1.5,-24,0
CN(Cc1nc2ccccc2n1C)S(=O)(=O)c1ccc(Cl)cc1,7.1,-6,-8%,-2.0,1.2,·,-3
O/N=C1/CCSc2ccccc21,-1.7,1,-4%,0.6,-7.0,-9,4
O=C(Nc1cccc(F)c1)NC1(C(=O)N2CCC(O)CC2)CCCCC1,1.8,2,·,-1.4,0.5,-20,-1
CC(C)CC1(C)NC(=O)N(CCN2C(=O)c3ccccc3C2=O)C1=O (stereo not given),0.6,-4,24%,-2.3,-2.2,0,-34
COc1ccc(-c2c[n+]3c4n2CCCCC4=C(c2ccccc2)C3)cc1,4.0,-35,?,-6.8,·,·,0
CS/C(Nc1cc(Cl)ccc1Cl)=C(/C#N)C(=O)c1ccco1,0.2,-6,11%,-1.7,-3.3,4,34
O=C(CC1C(=O)NCCN1Cc1ccc(-c2ccccc2)cc1)NCCCn1ccnc1 (stereo not given),2.6,0,?,-0.7,3.8,-3,-1
CC(C)Nc1nnc(SCC(=O)N2CCN(C(=O)c3ccco3)CC2)s1,-0.6,·,?,·,4.5,·,-17
Cn1c(=O)c2c(ncn2CCOc2ccc(F)cc2)n(C)c1=O,4.2,16,·,16*,-1.8,20,1
CCn1cc(C(=O)NCCCN2CC(C)CC(C)C2)c(=O)c2cc(S(=O)(=O)N(C)C)ccc21 (stereo not given),1.8,-3,10%,-1.8,-3.5,-4,2
COCCCNC(=O)CCS(=O)(=O)Cc1ccc(C)cc1,-2.1,10,-2%,0.9,2.1,0,-2
COC(=O)c1sccc1N(C)S(C)(=O)=O,0.2,-9,-3%,3.1,2.4,-2,4

Going on with the list.
smiles,HNF4A DNA FP,Calb FLC,Vif A3G,RanGTP-Impb inh,LANA-H2B inh,ALR inh,B2AR ag
CCOc1ccc(/C=N/N(C)c2ccccc2)cc1OC,1.2,2,3%,5.3,0.6,33,7
CC(C)/C=N/Nc1nc(-c2ccc(Br)cc2)cs1,0.7,?,·,5.8,2.1,-1,-2
COc1cc(NC(=O)c2cc(S(=O)(=O)N3CCCCC3)c[nH]2)cc(OC)c1,0.4,-5,·,1.3,-4.0,-1,9
CC1(c2ccccc2Br)NC(=O)N(CC(=O)NC2CCCCC2)C1=O (stereo not given),2.2,·,-2%,·,-3.7,5,-4
CCn1c(=O)c([N+](=O)[O-])c(NCCc2ccccc2)c2ccccc21,-2.2,-5,16%,0.6,1.7,-11,8
CCOC(=O)c1cccc(NC(=O)CSc2nncn2-c2ccccn2)c1,1.7,2,·,6.1,-2.2,·,-1
CCCc1nc2c(=O)[nH]c3ccccc3c2o1,-1.3,-3,4%,2.4,6.3,·,-4
CCc1c(O)nc2ccccn2c1=O,0.7,0,0%,1.4,2.5,-4,-1
O=c1c2c3c(sc2nc2n1CCCS2)CCCC3,3.8,-16,-2%,2.7,-1.7,-4,-13
O=C(Nc1ccc(C(=O)NC2CCCCC2)cc1)c1cncc(Br)c1,-2.4,20,-19%,-1.0,0.4,0,-7
COc1cccc(C(=O)N2CCN(C3CCC(c4ccccc4)CC3)CC2)c1OC (stereo not given),-3.4,-28,6%,·,0.6,4,5
CC1(C(=O)O)CCC(C(=O)Nc2ccc3ccccc3c2)C1(C)C (stereo not given),2.9,28,2%,-1.8,-0.6,-8,3
Cc1noc(C)c1COc1cccc(C(=O)OCCOc2ccc(F)cc2)c1,2.5,2,-3%,0.6,3.0,-8,11
CCCCCCCC(=O)NNC(=O)Cc1ccccc1,1.5,-4,2%,1.4,-0.8,-8,5
O=C1ON=C(c2ccccc2)/C1=C/c1ccc(O)c(O)c1,-4.0,2,·,-3.5,0.4,·,26
CCOC(=O)N1CCC(NC(=O)C(CC(C)C)NC(=O)C2CCCCC2)CC1 (stereo not given),1.3,26,-2%,2.4,0.0,·,6
NC(N)=NC(=S)Nc1ccc(Cl)cc1,0.8,-9,0%,4.1,1.7,13,8
COc1ccccc1NC(=O)C(C)OC(=O)CC1CCCCC1 (stereo not given),0.4,·,3%,·,-2.8,3,4
O=C1N(c2ccccc2)C2CS(=O)(=O)CC2N1c1ccc(Cl)c(Cl)c1 (stereo not given),3.5,0,84%,0.9,0.7,-15,-6
COc1ccccc1-c1cn[nH]c1-c1ccc(O)cc1O,2.2,13,-14%,-0.7,-5.3,62,5
CCN(CCCNC(=O)CCCCn1c(=O)[nH]c2ccccc2c1=O)c1ccccc1,4.0,30,3%,-0.8,2.5,72,4
COC(=O)Cn1c(-c2ccc(OC)cc2)c(-c2ccc(OC)cc2)nnc1=O,-0.2,3,-1%,0.9,-1.1,-2,3
Cc1cccc[n+]1CCCCCCCCCC[n+]1ccccc1C,-0.2,-7,5%,0.3,-2.8,-3,-8
CCN(CC)S(=O)(=O)c1ccc(C(=O)NCC(c2cccs2)N2CCOCC2)cc1 (stereo not given),0.3,-3,-3%,2.8,0.5,0,14
CC(C)(C)NC(=O)C(Cc1ccccc1)NS(=O)(=O)c1cccc2nsnc12 (stereo not given),3.5,-5,-14%,-3.0,-3.9,-15,3
COCCCn1c(SCC(=O)NC2CCCCC2)nnc1-c1ccco1,-0.8,25,·,1.5,1.6,-2,9
CC[C@]12c3[nH]c4cc(-c5ccco5)ccc4c3CCN1C(=O)[C@@H](CC(=O)NCc1ccco1)C[C@@H]2C(=O)N1CCN(C(=O)c2ccco2)CC1,3.2,·,-5%,·,·,·,0
COc1ccc(-c2nc(CNS(=O)(=O)c3cc(OC)ccc3OC)cs2)cc1,-3.5,-5,-2%,2.2,3.8,12,-2
O=C(/C=C/c1ccccc1)NCCS(=O)(=O)N1CCN(c2ccccc2)CC1,-3.0,-3,1%,-5.6,2.2,-5,2
COc1ccc2nc(C)[nH]c(=O)c2c1,-2.8,-2,4%,?,-4.4,-8,8
COCCn1c(=NC(=O)c2ccc(S(=O)(=O)N3CCc4ccccc4C3)cc2)sc2cc(S(N)(=O)=O)ccc21,-3.8,37,-8%,0.7,·,·,0

No enrichment for hits; any-hit rate near 6.3%.
